# Bioassay records: PubChem BioAssay, several laboratories
# MLL AF4-AF9 inh = blocks AF4 peptide binding to human AF9; 350,000 tested, 0.47% active; AID 651704; AlphaScreen, biotin-AF4 peptide binding to FLAG-AF9; inhibition, % at 10 µM; P42568;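 active means every replicate reaching a set inhibition limit, whatever the replicate mean, cut at about 25% in these data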;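 further: 0% = plate neutral control median and 100% = total signal loss; the record names both 10 and 1 µM as test concentration; the first replicate is given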
# Target sequence (P42568 whole entry, looked up): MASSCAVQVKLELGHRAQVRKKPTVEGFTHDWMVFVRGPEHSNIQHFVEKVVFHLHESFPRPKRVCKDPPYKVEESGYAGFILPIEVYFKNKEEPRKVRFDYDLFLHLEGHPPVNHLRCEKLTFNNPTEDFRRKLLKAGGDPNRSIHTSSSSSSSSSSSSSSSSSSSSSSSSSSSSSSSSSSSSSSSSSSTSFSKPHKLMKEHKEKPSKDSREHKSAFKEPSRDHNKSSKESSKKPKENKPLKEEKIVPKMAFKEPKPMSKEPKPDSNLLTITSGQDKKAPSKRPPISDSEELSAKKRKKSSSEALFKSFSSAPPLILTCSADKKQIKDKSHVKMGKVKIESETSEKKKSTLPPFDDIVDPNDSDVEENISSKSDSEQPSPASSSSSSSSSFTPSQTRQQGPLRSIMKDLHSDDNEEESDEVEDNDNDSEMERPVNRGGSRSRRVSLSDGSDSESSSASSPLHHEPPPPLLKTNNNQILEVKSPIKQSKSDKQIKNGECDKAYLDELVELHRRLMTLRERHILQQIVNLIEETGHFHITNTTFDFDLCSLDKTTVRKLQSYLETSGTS
# UCH37 DUB inh = inhibitors of human deubiquitinating enzyme UCH37. Q9Y5K5. 330,000 tested, 0.33% active. inhibition, % (concentration not given with the values). purified proteasome/UCH37, Ub-AMC cleavage fluorescence;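 active means mean of two replicates above 20%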;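 further: 0% = compound-free wells with enzyme and 100% = wells lacking proteasome; stock transfer was 100 nL into about 20 µL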
# Target sequence (Q9Y5K5 whole entry, looked up): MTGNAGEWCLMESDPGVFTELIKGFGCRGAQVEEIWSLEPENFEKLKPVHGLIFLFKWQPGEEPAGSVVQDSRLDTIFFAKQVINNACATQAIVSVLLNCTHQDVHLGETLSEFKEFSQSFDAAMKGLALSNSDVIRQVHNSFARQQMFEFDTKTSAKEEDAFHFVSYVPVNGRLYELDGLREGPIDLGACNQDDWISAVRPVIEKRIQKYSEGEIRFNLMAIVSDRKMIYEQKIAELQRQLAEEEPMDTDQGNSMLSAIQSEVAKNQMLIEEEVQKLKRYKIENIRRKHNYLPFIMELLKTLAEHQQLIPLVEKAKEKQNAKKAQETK
#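 Signal – fluorescence, ex 355 nm, em 460 nm · System – Proteasome-bound UCH37 · Input – 0.15 nM proteasome as dispensed · Timing – 30 min preincubation with enzyme, 25 min cleavage at room temperature · Read-out basis – percent inhibition of cleavage signal versus uninhibited and no-proteasome wells · Medium – Tris-HCl pH 7.4 with ATP-MgCl2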
# rRNA inh HTS = selective bacterial rRNA inhibition in E. coli. E. coli WT GFP vs humanized-ribosome RFP mutants, fluorescence, 24 h; active compounds read low; DMSO median 0, no signal -100. 350,000 tested, 1.6% active. GFP signal change (wild-type ribosome), % (no concentration beside the values);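 active means significant combined selectivity score with lowered wild-type GFP, culture density cut under 30%, mutant RFP and density less affected; inactive means any of these conditions unmet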; further: one replicate is shown; some compounds called inactive have numbers as strong as hits
# T cruzi repl = T. cruzi replication inhibition | T. cruzi beta-gal in NIH3T3, luminescence, 90 h | inhibition, % (concentration not given with the values) | 300,000 tested, 1.4% active;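 active means mean inhibition across valid replicates above about 55%, limit read from the data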;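 further: signal also drops with host cell toxicity which is not excluded here; 0% = plate median of DMSO wells and 100% = zero luminescence signal; higher percent means less beta-gal luminescence so fewer parasites; stock transfer was 50 nL into about 50 µL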
# Beta apoptosis = blocks beta cell apoptosis | protection from apoptosis, % (no concentration beside the values) | INS-1E cytokine-induced death, ATP luminescence, 48 h; percent of positive-control rescue, neutral wells zero | 300,000 tested, 0.8% active;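 active means all replicates at 75% or more, or half of them and the mean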;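 further: 0% = cytokine-treated negative control wells and 100% = positive control rescue; higher means more ATP so stronger rescue from cytokine killing; wells of about 40 µL received 100 nL stock; the first replicate is given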
# A1 inh = inhibitors of the anti-apoptotic protein A1, read as caspase activation; MEF A1-2A-BIM cells, Caspase-Glo 3/7 luminescence, 3 h; percent of clofoctol response, vehicle zero; caspase activation, % (concentration not given with the values); 330,000 tested, 0.066% active;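 active means over half of replicate activation scores above 10%, or exactly half above 10 with the replicate mean above 10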;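 further: wells of about 30 µL received 50 nL stock; many hits fall short of the cut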
# FGF22 binding = shifts melting point of recombinant human FGF22; Q9HCT0; recombinant FGF22 thermal shift, SYPRO orange fluorescence; percent of sucrose octasulfate shift, DMSO zero; calls only at 9.99 µM; 340,000 tested, 1.5% active; AID 651658;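 active means melting point raised past a set limit in the mean and every replicate; three in four hits are not shown here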
# Target sequence (Q9HCT0 whole entry, looked up): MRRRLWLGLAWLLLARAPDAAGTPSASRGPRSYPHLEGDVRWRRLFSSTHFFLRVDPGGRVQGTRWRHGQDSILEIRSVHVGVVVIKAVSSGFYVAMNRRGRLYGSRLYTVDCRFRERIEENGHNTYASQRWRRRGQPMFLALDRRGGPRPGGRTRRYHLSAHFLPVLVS
# E coli growth = E. coli growth inhibition; 330,000 tested, 0.21% active; OD600 absorbance (concentration not given with the values); Escherichia coli growth, OD600, 23 h; active compounds read low;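 active means OD600 absorbance below the run mean of sample wells minus 3.6 SD, in any replicate, cut at about 0.56 in these data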;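 further: stock transfer was 300 nL into about 60 µL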
# rRNA inh HTS OD600 = recorded beside rRNA inh HTS, whose call it bears; OD600 change, %; measured here: OD600 growth;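 optical density of the mix in the first replicate; 0 = DMSO median and -100 = no signal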
# rRNA inh HTS RFP = also measured in rRNA inh HTS; calls as there; RFP signal change, %; measured here: RFP humanized mutant strains;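 first replicate; 0 = DMSO median and -100 = no signal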
# Starred values were filed as active, the others as inactive; i = inactive; . = not tested or not shown.
SMILES,MLL AF4-AF9 inh,UCH37 DUB inh,rRNA inh HTS,rRNA inh HTS OD600,rRNA inh HTS RFP,T cruzi repl,Beta apoptosis,A1 inh,FGF22 binding,E coli growth
COc1cccc(C2c3c(oc4ccccc4c3=O)C(=O)N2Cc2ccco2)c1 (centres undefined),-53,2.6,9,4,-1.4,4,-6,0.1,i,0.72
Cc1ccc(-n2nnnc2SCC(=O)N2CCCCC2)cc1,.,4.9,.,.,.,2,1,0.5,.,0.68
COc1ccc(S(=O)(=O)N2CCN(C(=O)c3oc4ccccc4c3C)CC2)cc1,-1.3,0.8,-9,-15,2.4,23,1,1.1,i,0.72
CCOc1ccccc1NC(=O)NC1(C(=O)NCc2cccnc2)CCCCC1,1.6,0.2,1,4,0.8,9,-4,0.6,i,0.65
CC(=O)c1cccn1S(=O)(=O)c1ccccc1,-1.7,-0.3,10,4,-2.7,-5,-6,0.7,i,0.67
NS(=O)(=O)c1ccc(NC(=O)COC(=O)c2ccc([N+](=O)[O-])s2)cc1,6.5,69*,4,-7,-9.0,10,3,0.4,i,0.7
O=C(CCN1CCOCC1)Nc1ccccc1,.,1.1,.,.,.,6,3,-0.1,.,0.74
CC#CCN1C=C(C(=O)OCC)C(C)N(Cc2ccc(Br)cc2)S1(=O)=O (centres undefined),-7.6,1.8,-4,-8,-2.4,.,.,.,i,0.68
COc1ccccc1C1CCN(Cc2ccc(Cl)cc2Cl)CC1,-16,0.3,-24,-38,0.0,11,5,-1.5,i,0.69
Nc1[nH]ncc1N=Nc1ccc(Cl)cc1,.,9.0,.,.,.,-8,-4,-0.8,.,0.63
COc1ccc(NC(=O)CSc2nc3ccccc3c(=O)n2CCNC(C)=O)cc1,.,4.4,5,10,12,-19,1,1.5,.,0.73
Cc1ncc(/C=C2\C(=O)Nc3ccccc32)[nH]1,0.7,11,-19*,-0.2*,-5.4*,18,-6,-1.1,i,0.63
Cc1ccccc1Cn1nnc(-c2ccc(F)cc2)n1,-0.8,1.8,-14,-7,6.1,-5,-8,-0.1,i,0.69
Cc1ccc(-c2cc(=O)[nH]c3ccccc23)cc1,.,-3.8,.,.,.,-2,17,1.3,.,0.79
CC(C)C[C@H](NC(=O)[C@H](Cc1ccccc1)n1c(=O)[nH]c2ccccc2c1=O)C(=O)N1CCC[C@H]1C(=O)O,-1.5,0.8,.,.,.,-15,-2,-0.3,i,0.73
NC(=O)CCc1c[nH]c2ccccc12,.,2.4,.,.,.,3,-4,-0.2,.,0.73
CC(=O)N1CCN(C(=O)c2cc(C)oc2C)CC1,-0.3,-2.1,8,7,-2.1,.,-1,-1.1,i,0.67
CN(C)c1nc(SCc2ccccc2)nc(N2CCOCC2)n1,.,0.7,.,.,.,1,-5,-0.2,.,0.69
CC(=O)C1=C(O)C(=O)N(c2ccc(Br)cc2)C1c1cccc(F)c1 (centres undefined),-7.9,-6.6,-5,-6,-1.8,19,6,-0.8,i,0.68
O=C(NNC(=O)C1CCCCC1)c1ccncc1,-5.2,1.4,12,13,-0.3,-14,3,-0.3,i,0.7
Cc1[nH]n(C(N)=S)c(=O)c1N=Nc1ccc2ccccc2c1,5.7,13,-38,-58,-2.7,-30,.,.,i,0.65
CN(c1ccccc1)S(=O)(=O)c1ccc(C(=O)NNC(=O)c2ccccc2)cc1,0.1,2.8,2,4,1.7,.,.,.,i,0.66
Cc1ccccc1OCCC(=O)Nc1cccc(S(=O)(=O)Nc2ccccc2Cl)c1,2.8,4.7,-38,-66,-15,-10,0,-0.9,i,0.7
O=C(Oc1ccc(/C=N/NC(=O)c2ccco2)cc1)c1ccccc1,-3.1,.,0,9,-3.0,.,-1,-6.3,i,.
COC(=O)Cn1cc(/C=C/[N+](=O)[O-])c2ccccc21,6.2,3.1,12,15,2.5,-14,-8,1.0,i,0.69
COc1ccc(CCC(=O)Nc2cc(S(=O)(=O)N3CCCCC3)ccc2N(C)C)cc1,0.2,4.3,-11,-15,-0.3,.,2,-0.8,i,0.67
CCN(CC(=O)Nc1c(F)cccc1F)C(=O)CCSc1ccc(F)cc1,-0.4,3.6,1,-2,-3.7,4,-1,1.2,i,0.73
CC1(C)CC(=O)C=C(NCC(=O)O)C1,-1.9,2.0,9,2,0.8,-18,-3,-0.3,i,0.64
CCCCCN(C(=O)CCC(=O)OCC(=O)c1cccc(OC)c1)c1c(N)n(CCCC)c(=O)[nH]c1=O,0.9,.,11,0,2.0,0,0,0.6,i,.
CC1=C(C)[N+](=O)C2(O)CCCCC2(C)N1[O-] (centres undefined),.,5.3,.,.,.,-3,5,0.3,.,0.74
CCn1c(SCC(=O)Nc2cc(C)on2)nnc1-c1c[nH]c2ccccc12,-0.7,6.5,-9,-19,1.3,-11,-3,-0.6,i,0.74
Cc1csc(Sc2ccc([N+](=O)[O-])cc2C(=O)OCC(=O)NC2CCCC(C)C2C)n1 (centres undefined),.,4.0,.,.,.,-16,11,-0.4,.,0.74
Cc1ccccc1NC(=O)Nc1cccs1,.,0.1,.,.,.,-10,-4,0.7,.,0.68
Cc1cc(=O)[nH]c(SCC(=O)NC2CCCCCC2)n1,-5.2,1.7,6,-2,-1.4,.,-2,-1.8,i,0.67
C=CCn1c(SCCCCCC)nc(O)cc1=O,.,1.3,.,.,.,1,-6,-0.7,.,0.67
COc1ccc(-c2nsc(SCC(=O)Nc3ccc4c(c3)OCO4)n2)cc1,-3.7,.,6,8,9.9,5,5,-0.3,i,.
CCC(C)c1ccc(S(=O)(=O)N2CCN(c3ccccn3)CC2)cc1 (centres undefined),1.0,4.6,9,12,1.4,20,-5,0.7,i,0.65
CCOc1cc(N2CCOCC2)c(OCC)cc1NC(=O)Cn1nc(C)c([N+](=O)[O-])c1C,-2.2,5.1,2,4,-1.7,-13,-6,0.8,.,0.65
Cc1cccc(N2CCN(C3CCCCC3NS(=O)(=O)c3ccccc3)CC2C)c1 (centres undefined),.,-0.6,.,.,.,44,22,0.6,.,0.73
COc1cccc(OC)c1OCCCN1CCC(Cc2ccccc2)CC1,-0.5,2.1,3,3,1.0,21,3,0.5,i,0.65

# Rewritten with bars between the fields: part of the list above.
SMILES | MLL AF4-AF9 inh | UCH37 DUB inh | rRNA inh HTS | rRNA inh HTS OD600 | rRNA inh HTS RFP | T cruzi repl | Beta apoptosis | A1 inh | FGF22 binding | E coli growth
C=CCn1c(SCCCCCC)nc(O)cc1=O | . | 1.3 | . | . | . | 1 | -6 | -0.7 | . | 0.67
COc1cccc(OC)c1OCCCN1CCC(Cc2ccccc2)CC1 | -0.5 | 2.1 | 3 | 3 | 1.0 | 21 | 3 | 0.5 | i | 0.65
Cc1ccccc1NC(=O)Nc1cccs1 | . | 0.1 | . | . | . | -10 | -4 | 0.7 | . | 0.68
CCC(C)c1ccc(S(=O)(=O)N2CCN(c3ccccn3)CC2)cc1 (centres undefined) | 1.0 | 4.6 | 9 | 12 | 1.4 | 20 | -5 | 0.7 | i | 0.65
COc1ccc(-c2nsc(SCC(=O)Nc3ccc4c(c3)OCO4)n2)cc1 | -3.7 | . | 6 | 8 | 9.9 | 5 | 5 | -0.3 | i | .

# More compounds follow:
SMILES,MLL AF4-AF9 inh,UCH37 DUB inh,rRNA inh HTS,rRNA inh HTS OD600,rRNA inh HTS RFP,T cruzi repl,Beta apoptosis,A1 inh,FGF22 binding,E coli growth
CC(C)c1nnc(SCC(=O)Nc2ccc3c(c2)OCCO3)n1C,-1.3,2.7,4,5,-1.6,-9,2,0.8,i,0.7
O=C(O)CCCN1C(=O)c2ccccc2Sc2ncccc21,3.4,2.3,-3,-4,4.1,-13,-3,0.7,i,0.68
CCCCN(C)C(=O)c1coc(=O)c2ccccc12,.,1.9,.,.,.,-10,-2,-0.5,.,0.74
CC(C)Cn1c(-c2ccco2)n[nH]c1=S,.,0.1,.,.,.,-9,-5,0.2,.,0.72
Cn1c(O)c(N=NC(=O)CNC(=O)c2ccccc2)c2cc(Br)ccc21,-4.3,5.0,8,16,-0.2,1,3,-1.1,i,0.69
CC1=C(C(=O)Nc2ccccc2C)C(c2ccc(C)o2)N2C(=O)CSC2=N1 (centres undefined),0.9,1.3,22,14,8.5,-33,-8,0.6,i,0.73
Cn1cccc1C1NC(=O)c2c(sc3c2CCC(C(C)(C)C)C3)N1 (centres undefined),.,2.6,.,.,.,16,2,-0.9,.,0.72
CC(C)(C)CC(=O)Nc1nnc(CCc2ccccc2)s1,5.9,0.8,12,11,1.1,11,.,-0.8,i,0.68
CCS(=O)(=O)N1CCC(C(=O)Oc2ccc(Cl)cc2)CC1,3.4,1.1,5,-2,1.1,-5,1,1.1,i,0.64
CCOc1ccc(S(=O)(=O)Nc2ccc3c(c2)OCO3)cc1,-2.3,1.4,6,-22,2.0,5,1,0.2,i,0.64
O=C(Nc1nnc(-c2ccco2)s1)C1CCN(S(=O)(=O)c2ccc(Cl)cc2)CC1,10,5.6,11,3,12,-16,-3,0.3,i,0.72
Cc1cc[n+]2cc(-c3cccc([N+](=O)[O-])c3)c(-c3cccc([N+](=O)[O-])c3)cc2c1,.,4.0,.,.,.,-10,-1,1.0,.,0.7
COc1ccccc1C1(O)CCN(CC(=O)Nc2c(C)nn(C)c2C)CC1,.,0.3,.,.,.,-13,.,-0.6,.,0.7
CC(C)(C)OC(=O)C[C@H]1C/C=C\C[C@@H](CC(=O)N[C@@H](CO)Cc2ccccc2)C(=O)N2CCC[C@@H]2COC1=O,-11,-3.9,11,8,10,.,3,1.4,i,.
Cc1cc(C)c(C(=O)COC(=O)c2cccc(S(=O)(=O)NCc3ccccc3)c2)cc1C,-3.0,2.6,-4,-11,2.5,0,-8,0.4,i,0.73
CN(C)CCNC(=O)Nc1ccc(Cl)c(Cl)c1,.,7.5,.,.,.,-6,-4,-0.3,.,0.66
COc1cccc2c1OC1(C)CC2NC(=O)N1Cc1ccccc1 (centres undefined),.,5.0,.,.,.,-4,-4,-0.4,.,0.7
O=C(Nc1cccc(S(=O)(=O)N2CCCC2)c1)c1cc(=O)[nH]c2ccccc12,1.2,-1.7,-2,-3,1.2,.,-4,0.5,i,0.65
CCOC(=O)c1ccc(NC(=S)N(CCCN2CCN(CC)CC2)Cc2cccs2)cc1,5.6,6.6,5,-3,1.2,10,-27,-0.9,.,0.67
CC(C)C(C(=O)OCC(=O)c1ccccc1)N1C(=O)C2C3C=CC(C3)C2C1=O (centres undefined),-1.9,-0.5,4,10,-0.2,-5,-1,0.6,i,0.69
Cc1ccc(OCCC(=O)OCC(=O)Nc2ccc(C)c(S(=O)(=O)N3CCOCC3)c2)cc1,-1.9,0.7,6,11,1.8,.,.,.,i,0.62
COc1ccc(O)c(CN2CCN(C/C=C/c3ccccc3)CC2)c1,.,2.4,.,.,.,9,2,0.8,.,0.7
Cn1cc(C(=O)NCC2COc3ccccc3O2)c(=O)c2cc(S(=O)(=O)N3CCCCC3)ccc21 (centres undefined),.,-1.9,.,.,.,6,4,0.4,.,0.66
COc1cccc(-c2nn(-c3ccccc3)cc2CN(C)Cc2ccon2)c1,-2.5,2.2,-13,-27,-3.0,15,-1,0.5,i,0.71
Oc1[nH]c2ccc(Br)cc2c1N=Nc1nn[nH]n1,-1.8,16,3,5,-8.4,-4,-3,0.4,i,0.7

# The list is partial, so the mix of outcomes need not match the whole.
